Menin MLL FP FL – displaces fluorescein MLL peptide from human menin. FP activity change, % at 61.4 µM. Fluorescence polarization, fluorescein-MLL peptide displacement from menin. 290,000 tested, under 10 active; inconclusive = falling polarisation curve, or a change in total fluorescence; inactive = total fluorescence flat and polarisation flat or rising; no compound was filed as active; the % refers to the polarisation; negative = inhibition;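 also: % of control where 0% means no effect; inhibitors lower the polarisation; unlabelled MLL peptide was the positive control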
gsp antagonist – antagonists of gsp mutant (McCune-Albright syndrome) | gsp-mutant cells, cAMP HTRF, 30 min; control for the full effect not named in the record | Potency, µM (titrated, usually from 76.9 µM), for inactives: at the highest dose activity change, negative = inhibition, most hits filed as inhibitors | 340,000 compounds, 0.4% hits; active = falling curve of any shape with a large fitted effect; inconclusive = falling curve, mostly with a smaller effect; inactive = flat or rising curve; cell line not stated here;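 also: intracellular cAMP measured with PDE inhibitor Ro 20-1724 present during compound exposure; potency is read from the fitted curve at half-maximal effect; % is scaled to controls: 0 for no effect and ±100 for the full control effect; nearly all actives have a fitted effect of over 65% in size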
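Measurement of cellular cAMP by homogeneous time-resolved fluorescence following a 30 min compound exposure at 37C. The PDE inhibitor […] was present throughout; the assay buffer was DPBS with 0.05% BSA and 0.005% Tween 20.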
ClpP mod – qHTS Assay for Activators of ClpP | purified B. subtilis ClpP, FRET peptide cleavage, 20 min | AID 651965, 2013 | Potency, µM (titrated, usually from 57.5 µM), without a hit: at the highest dose activity change, negative = active | 340,000 compounds, 1.9% hits; active = well fitted falling curve with a large enough effect; inconclusive = small, poorly fitted or top-dose-only effect; inactive = no such curve, though single readings can be large or run the other way; also: potency is read from the fitted curve at half-maximal effect; the source files actives as falling curves though it sought activators and does not explain the sign; nearly all actives have a fitted effect of over 65% in size; many hits overshoot -100%
Target sequence (P80244 whole entry, looked up): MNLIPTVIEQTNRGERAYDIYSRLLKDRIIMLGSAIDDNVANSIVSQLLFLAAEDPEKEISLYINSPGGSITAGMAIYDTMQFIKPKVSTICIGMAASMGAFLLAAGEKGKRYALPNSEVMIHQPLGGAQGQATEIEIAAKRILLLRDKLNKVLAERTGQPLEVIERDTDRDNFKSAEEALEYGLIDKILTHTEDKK
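ClpP 10 microg/mL final, pH 8 Tris/KCl buffer with BSA, glycerol, Tween-20; compound pinned in; FRET-FV substrate; RT 20 min; Ex320/Em430; ΔFRET vs ADEP 5.8 microM, DMSO, no enzyme.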
CtBP-E1A blk – CtBP/E1A binding inhibition. AlphaScreen GST-E1A/His-CtBP binding, 1536-well; stronger effect = lower value; control for the full effect not named in the record. activity change, % (no concentration beside the values). 340,000 compounds, 0.49% hits. AID 651724; in the data active means activity change below about -65%; inconclusive means about -30% to -65%; inactive means above about -30%; also: % is scaled to controls: 0 for no effect and ±100 for the full control effect
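AlphaScreen with 125 nM GST-E1A and 125 nM His-CtBP (5X stocks) in Tris pH 8.0, 300 mM NaCl, BSA, Tween 20, TCEP. Compounds preincubated 2 h at 37 deg C, then glutathione donor/nickel acceptor beads added for 1 h at 37 deg C in dark.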
TRPV1 PAM – enhances activation of the human vanilloid receptor TRPV1. Q8NER1. TRPV1-expressing cells, Fluo-8 calcium influx, capsaicin EC20 potentiation; host cell line not named in the record; control for the full effect not named in the record. potentiation, % at 8.33 µM. 320,000 compounds, 0.02% hits. AID 540277; active means potentiation above 80%; inconclusive means 30% to 80%; inactive means below 30%; also: 0% is about no effect
Target sequence (Q8NER1 whole entry, looked up): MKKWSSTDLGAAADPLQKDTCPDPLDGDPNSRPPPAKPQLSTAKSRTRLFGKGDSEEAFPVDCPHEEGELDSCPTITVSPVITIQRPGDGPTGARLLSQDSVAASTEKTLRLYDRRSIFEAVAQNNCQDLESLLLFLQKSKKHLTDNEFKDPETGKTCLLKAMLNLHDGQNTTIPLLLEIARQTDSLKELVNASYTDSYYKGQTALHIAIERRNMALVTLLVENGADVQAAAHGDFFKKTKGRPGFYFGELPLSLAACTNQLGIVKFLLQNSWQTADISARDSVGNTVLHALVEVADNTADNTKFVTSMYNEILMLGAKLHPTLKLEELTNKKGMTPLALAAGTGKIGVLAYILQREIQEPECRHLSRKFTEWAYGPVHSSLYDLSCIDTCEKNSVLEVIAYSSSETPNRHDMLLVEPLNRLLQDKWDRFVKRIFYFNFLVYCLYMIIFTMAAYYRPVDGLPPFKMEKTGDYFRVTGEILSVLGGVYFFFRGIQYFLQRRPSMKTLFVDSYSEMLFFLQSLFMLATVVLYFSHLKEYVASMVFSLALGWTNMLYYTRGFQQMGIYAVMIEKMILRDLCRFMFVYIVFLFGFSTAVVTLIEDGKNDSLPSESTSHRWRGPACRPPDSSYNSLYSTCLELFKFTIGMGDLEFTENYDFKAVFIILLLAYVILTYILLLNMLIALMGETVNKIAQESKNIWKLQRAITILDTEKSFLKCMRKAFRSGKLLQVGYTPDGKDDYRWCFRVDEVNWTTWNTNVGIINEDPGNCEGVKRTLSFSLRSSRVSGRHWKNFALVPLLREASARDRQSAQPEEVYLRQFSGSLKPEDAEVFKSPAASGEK
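Fluo-8 calcium influx in TRPV1-expressing cells, kinetic read (ex 480/em 520 nm). Compound added and read 3 min for agonist activity, followed by capsaicin at EC20 final and 2 min further read for enhancement.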
gsp ag – agonists of gsp mutant (McCune-Albright syndrome) | gsp mutant cells, cAMP HTRF, 30 min; control for the full effect not named in the record | AID 624287 | 340,000 compounds, 0.13% hits | Potency, µM (titrated, usually from 76.9 µM), for the others: at the highest dose activation (cAMP increase), usual class: activators; active = well fitted activation curve with a large enough effect; inconclusive = small, poorly fitted or top-dose-only effect, or another doubt; inactive = no such curve, though single readings can be large or run the other way; cell line not stated here;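 also: phosphodiesterase inhibitor Ro 20-1724 added with compounds to block cAMP breakdown; potency is read from the fitted curve at half-maximal effect; nearly all actives have a fitted effect of over 60% in size; about a fifth of the inactives were tested at one dose only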
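Cells in DMEM/10% FBS with G418 were pretreated with compounds in DMSO plus […] (300 uM stock) for 30 min at 37C. cAMP was measured by HTRF (cAMP-d2 plus anti-cAMP antibody-K) after 30 min at room temperature.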
Sfp inh – inhibitors of Bacillus subtilis Sfp phosphopantetheinyl transferase. Biochemical Sfp PPTase activity, qHTS. Q9F4F7. Potency, µM, for inactives: max response, negative = inhibition, usual class: inhibitors. 310,000 compounds, 3.5% hits; active = well fitted inhibition curve with a large enough effect; inconclusive = small, poorly fitted or top-dose-only effect, or another doubt; inactive = no such curve, though single readings can be large or run the other way;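 also: the enzyme is Sfp with the accession as filed and its product quenches rhodamine fluorescence; potency is read from the fitted curve at half-maximal effect; 0% = enzyme reaction without inhibitor and -100% = no enzyme wells; top concentration of the series not given in the record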
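Buffer: 50 mM Hepes-Na pH 7.6, 10 mM MgCl2, 0.01% Nonidet P-40, 0.01% BSA. Enzyme 15 nM, pre-exposed to compound 15 min; substrates then added and fluorescence change tracked over 30 min.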
* hit, by the source's call; ? = inconclusive; · = no result given; & = joins results of further samples; [ ] = another dose, or the depositor's remark.

SMILES | Menin MLL FP FL | gsp antagonist | ClpP mod | CtBP-E1A blk | TRPV1 PAM | gsp ag | Sfp inh
CN(C(=O)Cn1nnc(-c2cccc(C(F)(F)F)c2)n1)C1CCCCC1 | 2.5 | 7% | -0.1% | 9 | -15 | -8% | 15%
O=S(=O)(NCCSc1ccccc1)c1ccc2c(c1)OCCO2 | 0.7 | -28% | 0.0% | 0 | -4 | -19% | 2%
Cc1ccc2oc(C(=O)N3CCC(N4CCSCC4)CC3)c(C)c2c1 | · | 9% | -0.3% | 0 | -12 | -4% | 11%
O=[N+]([O-])c1ccc(F)cc1F | · | -5% | -0.4% | 6 | 0 | · | ·
CCOc1ccc(NC(=O)C(CC(=O)O)Cc2ccc(Br)cc2)cc1 (stereo not given) | -0.3 | -4% | -0.4% | 7 | -2 | 3%[15.4 µM] | 11%
Cc1ccc(-c2csc(NC(=O)c3cccc([N+](=O)[O-])c3C(=O)O)n2)cc1 | 3.4 | 7% | 1.1% | 2 | 4 | 9% | 8%
CC(C)Cc1ccc(S(=O)(=O)NCC2CCCO2)cc1 (stereo not given) | 2.3 | 12% | · | 8 | 16 | -29% | 10%
Cc1cccc(-c2nnc(N)s2)c1 | -2.9 | 4% | -5.3% | 1 | -1 | -32%[inhibitor] | 3%
Cc1cc(Cl)ccc1OCc1nc(-c2ccncc2)no1 | -0.1 | · | · | -14 | 10 | -7%[15.4 µM] | -2%
NS(=O)(=O)c1cccc(NC(=O)CN2CCCc3ccccc32)c1 | 1.3 | 6% | · | -2 | 5 | -13% | 17%
O=C(COC(=O)CC(c1ccccc1)c1ccccc1)Nc1c(F)cccc1F | 8.7 | · | · | · | -17 | · | 1%
CCCS(=O)(=O)N1CCC(C(=O)NC2CCCC(C)C2C)CC1 (stereo not given) | 1.2 | 2% | -20% | -10 | 4 | 12% | 9%
O=C(CN(Cc1ccco1)C(=O)c1ccc(Cl)cc1)Nc1c(Cl)cc(Cl)cc1Cl | 2.4 | 1% | -1.5% | -22 | 7 | -17%[15.4 µM] | 29%
N#CC1(Nc2ccc([N+](=O)[O-])cc2)CCCC1 | · | -10% | 0.6% | 2 | · | -18% | ·
Cc1ccc(S(=O)(=O)N2CCC(N3CCN(C)CC3)CC2)cc1Cl | -0.4 | 13% | · | -17 | 0 | -43%[inhibitor] | 6%
O=C(c1ccccc1)N1CCSc2sccc2C1=O | -1.3 | -10% | -3.6% | -4 | 16 | 19% | -11%
O=C(CNC(=O)c1sc2ccccc2c1Cl)NCc1ccccc1 | · | -22% | ? | 1 | 9 | -3% | 7%
COC(=O)CC1C(=O)NC2CCCCC2N1C(=O)CCl (stereo not given) | 1.4 | 4% | · | -18 | -1 | -24% | -21%
O=C(Nc1nc2ccc(F)cc2s1)c1ccc(N2CCCC2=O)cc1 | · | 4% | -19% | -1 | -13 | 6% | ·
COc1ccc(N2CCN(C3CCN(S(=O)(=O)c4ccc(F)cc4)CC3)CC2)cc1 | -0.6 | 6% | -1.1% | -9 | -5 | -21% | 4%
CCOC(=O)[C@H]1[C@H]2COc3cc(OC)ccc3[C@@H]2N2C(=O)c3cc(OC)c(OC)cc3NC(=O)[C@@]12C | · | -9% | -1.9% | 9 | 18 | · | ·
CCOC(=O)C(NC(C)=O)C(=O)Nc1ccc(C)cc1C (stereo not given) | -3.3 | 4% | · | -8 | 4 | 7%[15.4 µM] | 7%
Cc1ccc(OCC(=O)NNC(=O)C2CCN(c3nccc(C)n3)CC2)cc1 | -0.8 | 3% | ? | -4 | 0 | 26% | 0%
CCN(CC)CCN(C(=O)c1ccc(S(=O)(=O)N(CC)c2ccccc2)cc1)c1nc2c(OC)ccc(OC)c2s1 | -6.3 | -23% | -0.7% | -2 | 18 | -7% | -11%
CC1CC(C)CN(C(=O)Cn2c(SCC(=O)N3CCc4ccccc4C3)nc3ccccc32)C1 (stereo not given) | -1.3 | -21% | -3.0% | 0 | -4 | ? | 13%
SMILES | Menin MLL FP FL | gsp antagonist | ClpP mod | CtBP-E1A blk | TRPV1 PAM | gsp ag | Sfp inh
COc1ccc(OCC(=O)OCC(=O)Nc2ccc(S(=O)(=O)N3CCCCC3)cc2)cc1 | 0.5 | 8% | -0.4% | -1 | -10 | -7% | 4%
COc1ccc(-c2nnc(Nc3ccc(S(=O)(=O)Nc4nccs4)cc3)c3ccccc23)cc1 | 13 | 6% | · | 5 | -3 | -23% | 1%
COc1ccc2c(c1)C(C)=CC(C)(C)N2C(=O)CN1C(=O)CCC1=O | 1.0 | -3% | -2.4% | 6 | -2 | 1% | 6%
Cc1cc(CSc2ccccc2)ccc1NC(=O)COc1ccccc1 | 0.7 | -3% | -2.3% | 12 | -15 | -2% | 7%
Cc1cc(NC(=O)c2cc3ccccc3oc2=O)no1 | 3.0 | 9% | -6.0% | 7 | -2 | -13% | -1%
COC(=O)[C@H](Cc1ccccc1)NC(=O)O[C@@H]1C(=O)c2cc(OC)ccc2O[C@H]1c1ccc(OC)c(Br)c1 | 9.1&1.9 | · | · | · | -7 | · | -1%&-4%
c1ccc(-c2noc(CSc3nnc(Cc4cccs4)n3-c3ccccc3)n2)cc1 | 0.2 | -17% | -2.4% | -5 | 0 | -30%[inhibitor] | -1%
C/C(CC(=O)Nc1ccc(Cl)cc1C(F)(F)F)=N\NC(=O)c1ccccn1 | -1.8 | -9% | · | -18 | -18 | -2% | -18%
CC(=O)Nc1ccc(NC(=O)Cn2c(=O)n(-c3ccccc3)c(=O)c3oc4ccccc4c32)cc1 | -2.8 | -3% | · | 9 | 6 | -3%[15.4 µM] | 14%
Cc1ccc(C2=NN(S(=O)(=O)c3ccccc3)C(c3ccccc3O)C2)cc1 (stereo not given) | ? | -27% | · | 1 | -11 | -6%[15.4 µM] | 27%
CCCCNC(=O)C1C2C=CC3(CN(Cc4ccc(C)cc4)C(=O)C13)O2 (stereo not given) | -1.4 | 8% | 0.0% | 3 | -6 | 0% | 13%
C/C(=N\Nc1ccc([N+](=O)[O-])cc1)c1ccc(-n2nncc2C)cc1 | 21 | -14% | -0.9% | 11 | -4 | -9% | -1%
COc1ccc(Cl)cc1C(=O)O/N=C(\N)c1ccccn1 | -0.9 | 2% | 11% | · | -11 | 2% | 7%
CCC(C)(C)NC(=O)CN(CCc1cccc(C)c1)C(=O)c1csnn1 | 0.3 | 9% | -0.6% | -1 | -2 | ? | 17%
COc1cc2c(cc1OC)NC(=O)C2 | · | 12% | · | -6 | · | -16% | ·
CC(=O)/C(N=Nc1nc2c([nH]1)c(=O)n(C)c(=O)n2C)=C(\C)O | -9.3 | -2% | -1.1% | 0 | 4 | -1%[15.4 µM] | -2%
CCC(C)N1CCCCC1C(=O)Nc1c(C)cc(C)cc1C (stereo not given) | -4.4 | 10% | 0.5% | 20 | 30 | -15% | 18%
Cc1cccc(C(C(C(=O)c2ccccc2)N2CCOCC2)N2CCOCC2)c1 (stereo not given) | · | -3% | · | 8 | · | ? | ·
Cc1nc(-c2ccc3c(c2)CCC(=O)N3)cs1 | 1.9 | 7% | · | -4 | 1 | 10%[15.4 µM] | 20%
O=C1C2ON(c3ccc(Cl)cc3)C(c3ccco3)C2C(=O)N1c1ccccc1 (stereo not given) | 3.1 | -30% | 1.4% | · | -5 | 1% | 32µM*
Cc1ccc(CNC(=O)CSc2ccc(-c3ccco3)nn2)cc1 | 0.0 | 5% | -12% | -7 | 7 | 7% | -11%
O=C(NCCN1C(=O)S/C(=C\c2ccc(OC(F)F)cc2)C1=O)c1cnccn1 | 5.3 | 2% | 11% | -16 | -3 | -36%[inhibitor] | 16%
COc1cccc(-c2csc(N3CCN(C(=O)Nc4ccccc4OC)CC3)n2)c1 | 4.0 | -16% | -3.8% | -7 | 16 | -4% | 10%
CCOc1ccc(CC(=O)Nc2ccc(S(=O)(=O)Nc3cc(C)on3)cc2)cc1OCC | 1.2 | 2% | -2.3% | ? | 21 | -22% | 11%
Cc1ccc(-n2c(C)cc(/C([O-])=C(/C(=S)Nc3ccc(F)c(Cl)c3)[n+]3ccccc3)c2C)cc1 | 4.4 | ? | 1.3% | -19 | 7 | 3% | 56µM*
SMILES | Menin MLL FP FL | gsp antagonist | ClpP mod | CtBP-E1A blk | TRPV1 PAM | gsp ag | Sfp inh
CC1(C)CC(=O)C=C(c2n[nH]nc2C2=CCCCC2)C1 | · | · | -5.3% | 0 | · | -60%[inhibitor] | ·
CCOP(=O)(Nc1ccc2oc(=O)c3ccccc3c2c1)OCC | -2.9 | -1% | -10% | · | -4 | -3% | 5%
O=C(Nc1ccc(S(=O)(=O)N2CCOCC2)cc1)c1ccc(=O)[nH]c1 | 2.1 | 14% | -2.2% | 4 | · | 11% | 4%
COc1ccc(C2/C(=C(/O)c3cnn(-c4ccccc4)c3C)C(=O)C(=O)N2CCN(C)C)cc1OC (stereo not given) | · | 7% | · | 7 | · | 3% | ·
O=C(C1CCCO1)N1CCN(C(=S)Nc2ccc(Cl)cc2)CC1 (stereo not given) | 1.9 | 3% | ? | 8 | 5 | -5% | 3%
CC(=O)n1nc(-c2ccccc2)nc1NCc1ccc(F)cc1 | 0.7 | -3% | 41% | -1 | -3 | -31%[inhibitor] | -15%
CCOc1ccccc1NC(=O)C1CCCN(S(=O)(=O)c2ccc3c(c2)C(C)(C)C(=O)N3C)C1 (stereo not given) | -0.8 | -18% | 1.3% | 2 | ? | 29% | 10%
COc1ccc(CN(C(=O)c2ccc(-c3ccccc3)[nH]2)C(C(=O)NCC2CCCO2)c2ccc(C)o2)cc1 (stereo not given) | 5.6 | -27% | ? | -22 | -7 | -12% | -3%
COc1ccc(OCc2cc(C(=O)NCCCc3ccccc3)no2)c(Cl)c1 | · | -4% | 0.2% | -1 | 5 | -14% | 23%

Some of these compounds in order of the Menin MLL FP FL value, high to low.
molecule | Menin MLL FP FL
COc1ccc(CN(C(=O)c2ccc(-c3ccccc3)[nH]2)C(C(=O)NCC2CCCO2)c2ccc(C)o2)cc1 (stereo not given) | 5.6
O=C(C1CCCO1)N1CCN(C(=S)Nc2ccc(Cl)cc2)CC1 (stereo not given) | 1.9
CCOc1ccccc1NC(=O)C1CCCN(S(=O)(=O)c2ccc3c(c2)C(C)(C)C(=O)N3C)C1 (stereo not given) | -0.8
